Autofluor counter: flagged as autofluorescent in microsphere protease counterscreen. 360,000 compounds, 3.1% hits. fluorescence intensity (test concentration not listed). compound autofluorescence counterscreen, microsphere flow cytometry; hits give high values;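 active = at least 3 SD above the mean of all compounds, about 16000 in these data; inconclusive = too few beads counted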;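 note: 100 nL of 1 mM stock went into each well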
PrP UTR inh: inhibition of PrP 5' UTR reporter expression. cell-based PrP 5' UTR mRNA reporter, plate reader. 340,000 compounds, 0.35% hits. inhibition, % (concentration not given with the values);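 active = every replicate at 50% or more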;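 note: 0 = median of the neutral control wells; tested in H4 reporter cells; numbers are from one replicate; inactives centre near -14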
Mtb hypoxia rep: inhibitors of hypoxia-regulated fluorescent reporter in Mycobacterium tuberculosis; M. tuberculosis hypoxia-regulated fluorescent reporter, fluorescence; fluorescence inhibition, % (concentration not given with the values); 300,000 compounds, 0.1% hits;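 active = 35 to 45% if threefold the growth effect, above 45% if 1.5-fold the growth effect; inactive = the rest, general growth blockers included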;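 note: wells of about 50 µL received 100 nL stock; 0% = vehicle wells and 100% = reference inhibitor wells; whole bacteria with a GFP reporter of the hypoxia response; strong numbers were not always called active; many hits fall short of the cut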
ugtP null kill: compounds lethal to S. aureus RN4220 ugtP deletion mutant; OD600 growth, 16 h; some inactives read as strong as hits; growth inhibition, % (concentration not given with the values); 330,000 compounds, 0.54% hits; AID 1259309;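 active = z-score under -3 and OD600 up to 0.15 on both plates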;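 note: plate controls were untreated wells for no effect and antibiotic for full effect; wells of about 80 µL received 100 nL stock; the first replicate is given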
RN4220 kill: S. aureus RN4220 growth inhibition | 330,000 compounds, 0.33% hits | inhibition, % (test concentration not listed) | AID 1259311 | OD600, 16 h;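 active = z-score of -3 or lower and OD600 up to 0.18 on both plates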;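 note: plate controls were untreated cells for no effect and reference antibiotic for full effect; stock transfer was 100 nL into about 80 µL; one replicate is shown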
BJeLR lethal: BJeLR cell viability loss | 300,000 compounds, 0.17% hits | inhibition, % (no concentration beside the values) | BJeLR (HRASV12) viability, CellTiter-Glo ATP luminescence, 48 h; reference of the scale not given here | AID 1554;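 active = replicate mean above 50%; inconclusive = above 50% but judged a plate artefact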;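 note: 50 nL library stock added to about 25 µL; numbers are from one replicate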
Mtb hypoxia rep growth: recorded beside Mtb hypoxia rep, whose call it bears; growth inhibition, %; measured here: M. tuberculosis growth (absorbance);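 0% = vehicle and 100% = reference antibiotic; read after six days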
* = called active by the depositor; u = inconclusive; x = no result given.

SMILES | Autofluor counter | PrP UTR inh | Mtb hypoxia rep | Mtb hypoxia rep growth | ugtP null kill | RN4220 kill | BJeLR lethal
CN=c1sc(C(=O)Nc2cccc(Cl)c2)cc(=O)n1C | 6437 | 0 | 1 | 13 | -12 | -2.5 | -1
O=C(O)Cc1sc(=O)[nH]c1O | 3705 | -22 | -2 | 14 | 1 | -0.7 | x
CC(=O)c1cccc(NC(=O)N2C3CCCC2CC(NC(=O)C2CC2)C3)c1 (configuration not stated) | 3289 | 2 | 0 | -7 | 4 | 2.4 | 3
O=C(Nc1cccc(C(=O)N2CCCCCC2)c1)c1ccco1 | 3715 | 4 | x | x | 3 | 7.0 | -1
Cc1nn(Cc2ccccc2Cl)c(C)c1C(=O)N1CCN(c2ccccc2)CC1 | 15679 | 7 | 5 | 7 | 12 | 7.7 | 4
CC(C)NC(=O)NC(=O)COC(=O)c1ccccc1F | 9328 | -10 | 1 | 0 | 6 | 1.5 | 16
O=C(COC(=O)c1cc(Br)ccc1O)NC12CC3CC(CC(C3)C1)C2 | 3609 | -20 | 10 | 5 | 9 | 4.0 | x
CC1(C(=O)OCC(=O)Nc2nc(-c3ccc(F)c(F)c3)cs2)CC1(Cl)Cl (configuration not stated) | 5558 | -6 | 2 | 7 | 6 | 8.2 | 6
COc1cc2ccccc2cc1C(=O)Nc1ccc(S(=O)(=O)Nc2cc(C)on2)cc1 | 18401* | -21 | 22 | 22 | -24 | 7.9 | -4
Fc1ccccc1CSc1nc2ccccc2[nH]1 | 3576 | -70 | x | x | -3 | -2.6 | 0
CC1(C)CC(=O)C2=C(C1)N(Cc1ccccc1)C(=O)C2(NC(=O)C(C)(C)C)C(F)(F)F (configuration not stated) | 24235* | 1 | 1 | -4 | -4 | 0.7 | 2
O=C(Nc1ccc(Cl)c(Cl)c1)N1N=CCC1c1ccccc1 (configuration not stated) | 3645 | -15 | 4 | 5 | 26 | -11 | 0
Cn1cc(S(=O)(=O)NC2CCCCC2)c(=O)n(C)c1=O | 6110 | -14 | 8 | 4 | -2 | -1.3 | -5
c1ccc2ncc(-n3cnnn3)cc2c1 | 5895 | -7 | -14 | 1 | -5 | 0.8 | 6
C/C=C/c1ccc(OCCCCN(C)Cc2ccccc2)c(OC)c1 | 4892 | -15 | 22 | 15 | 4 | 0.6 | 7
O=c1c2ccccc2nc(-c2ccco2)n1CCc1ccc(O)cc1 | 3872 | -8 | 17 | 5 | -2 | 6.8 | 0
CC(=O)Nc1ccc(C(=O)Nc2ccc3c(c2)OCCO3)cc1 | 2944 | -31 | 3 | -4 | 0 | -0.6 | -3
CC(C)(C)S(=O)(=O)N1C[C@H]2CC/C=C\C/C(c3ccccc3)=C\2[C@@H]1CCO | 4239 | -24 | -2 | 2 | -9 | 1.1 | x
CCN(CC)C(=O)[C@H]1CC(CC(=O)NCCN2CCOCC2)C(=O)N2CCc3c([nH]c4ccc(OC)cc34)[C@]12C (some centres not stated) | 3321 | -14 | -9 | -6 | -2 | -3.4 | x
CC(C)(C)CC(=O)NCc1cccs1 | 4268 | -25 | 24 | 8 | 4 | 10.0 | -13
Cc1ccc(N(CC(=O)Nc2ccccc2-c2ccccc2)S(=O)(=O)c2ccccc2)c(C)c1 | 2604 | -7 | 5 | 6 | 1 | 1.6 | -13
CCN(CC)c1ccc(C(=O)OCC(=O)Nc2ccccc2-c2ccccc2)cc1 | 2069 | -18 | 2 | 5 | -8 | -9.3 | 0
CCOC(=O)N/N=C/C=C/c1ccccc1[N+](=O)[O-] | 5044 | -35 | x | x | x | x | 8
COc1cccc2c1CCc1c-2nc2ccccc2c1C(=O)O | 3871 | -9 | 9 | -3 | 3 | 2.2 | -7
COc1ccc(CNC(=O)COC(=O)[C@@H]2CCCN2C(=O)c2cccs2)cc1 | 3562 | -11 | 8 | 3 | 7 | 3.3 | x
CCS(=O)(=O)N1CCN(c2ccc(C(=O)NC34CC5CC(CC(C5)C3)C4)cc2[N+](=O)[O-])CC1 | 2563 | -17 | 4 | -4 | 5 | 3.5 | 12
Cc1ccc2c(c1)NC(c1cccs1)C1=C(CC(C)(C)CC1=O)N2 (configuration not stated) | 3472 | -14 | 16 | 10 | 6 | 4.8 | -9
CS(=O)(=O)Nc1ccccc1C(=O)N1CCN(c2ccccc2)CC1 | x | x | 9 | 9 | 6 | 3.5 | 1
Cc1c(C(=O)O)cccc1-n1c(C)cc(/C=C2\C(=O)NC(=O)N(c3ccc4c(c3)OCO4)C2=O)c1C | 3408 | -26 | 12 | -2 | -3 | 6.3 | -9
Cn1cccc1CC(=O)N/N=C/c1ccc(Cl)cc1 | 3753 | -13 | x | x | x | x | 3
O=C(CSc1nnc(Nc2ccccc2)s1)NCCN1C(=O)CSC1=O | 9535 | -13 | 3 | 2 | 6 | -0.3 | 7
Cc1cc(C)n(-c2ccc(C(=O)OCC(=O)Nc3ccc(Cl)c(S(=O)(=O)N(C)C)c3)cc2)n1 | 25627* | -10 | 12 | 5 | 7 | 4.1 | 13
CC(C)CNC(CC(=O)O)c1ccccc1 (configuration not stated) | 4269 | -22 | 1 | 4 | 4 | 6.7 | 1
Oc1ccc(-c2nc3ccccn3c2NCc2ccco2)cc1 | 2523 | -28 | 12 | 9 | -8 | -7.3 | 7
CCc1nn2cc(-c3ccccc3)nc2s1 | 4048 | 49 | 3 | 5 | 2 | 7.1 | 6
Cc1cccc(NC(=O)CCN2CC(C)OC(C)C2)c1 (configuration not stated) | 13273 | -18 | 6 | 3 | -2 | 5.1 | -4

The closing 7 compounds of the section before are carried over, then new ones follow.
SMILES | Autofluor counter | PrP UTR inh | Mtb hypoxia rep | Mtb hypoxia rep growth | ugtP null kill | RN4220 kill | BJeLR lethal
Cn1cccc1CC(=O)N/N=C/c1ccc(Cl)cc1 | 3753 | -13 | x | x | x | x | 3
O=C(CSc1nnc(Nc2ccccc2)s1)NCCN1C(=O)CSC1=O | 9535 | -13 | 3 | 2 | 6 | -0.3 | 7
Cc1cc(C)n(-c2ccc(C(=O)OCC(=O)Nc3ccc(Cl)c(S(=O)(=O)N(C)C)c3)cc2)n1 | 25627* | -10 | 12 | 5 | 7 | 4.1 | 13
CC(C)CNC(CC(=O)O)c1ccccc1 (configuration not stated) | 4269 | -22 | 1 | 4 | 4 | 6.7 | 1
Oc1ccc(-c2nc3ccccn3c2NCc2ccco2)cc1 | 2523 | -28 | 12 | 9 | -8 | -7.3 | 7
CCc1nn2cc(-c3ccccc3)nc2s1 | 4048 | 49 | 3 | 5 | 2 | 7.1 | 6
Cc1cccc(NC(=O)CCN2CC(C)OC(C)C2)c1 (configuration not stated) | 13273 | -18 | 6 | 3 | -2 | 5.1 | -4
CCNC(=S)N1CCn2cccc2C1c1ccc(F)cc1 (configuration not stated) | 5037 | -8 | 8 | 0 | 4 | 4.3 | -12
Cc1nn(C)cc1CN1CCC(n2nccc2NC(=O)CCCc2ccccc2)CC1 | x | -11 | 6 | -1 | 10 | 2.6 | -6
CC1(C)Cc2c(C#N)c(N3CCNCC3)nc(-c3ccco3)c2CS1 | 3619 | -1 | 8 | 2 | -7 | -5.5 | 10
Cc1ccsc1CN(C)C(=O)c1cc(S(=O)(=O)N2CCOCC2)ccc1N1CCCC1 | 8657 | -22 | 6 | -4 | 1 | 3.6 | x
Cc1c(C(=O)Nc2c(N)nc(SCC(=O)NCC3CCCO3)[nH]c2=O)cccc1[N+](=O)[O-] (configuration not stated) | 5667 | -1 | 4 | 5 | 5 | 3.8 | 2
FC(F)C(F)(F)c1cc(-c2ccc(Cl)cc2)n[nH]1 | 3730 | x | 6 | 12 | -21 | -11 | 6
CC1=[N+](C)N(c2ccccc2)C(=O)C1N=Cc1ccccc1Cl (configuration not stated) | 2581 | -23 | 5 | 6 | 4 | 5.5 | 1
CN(C)c1ccc(C(=O)Nc2cccc(S(=O)(=O)N3CCCC3)c2)cc1 | 7915 | -31 | 2 | 3 | -2 | -2.0 | x
COCCN(Cc1ccccc1)C(=O)c1ccc2c(c1)NC(=O)CS2 | 3792 | -11 | 5 | 15 | -1 | -3.4 | x
O=C(CSc1nc(-c2ccccc2)nc2c1Cc1ccccc1O2)Nc1ccc(C(=O)O)cc1 | 4248 | -14 | 0 | 1 | 22 | 21 | x
CCOC(=O)c1cccc(NC(=O)CCc2nc(-c3ccc(C)cc3)no2)c1 | 2691 | -10 | x | x | x | x | 1
Cc1sc2nc(CN3CCOCC3)nc(N3CCN(S(=O)(=O)c4ccccc4)CC3)c2c1C | 3219 | -5 | -10 | 1 | 5 | 2.5 | x
NS(=O)(=O)c1cnccc1Nc1cccc(Br)c1 | 3657 | -16 | 5 | -4 | 1 | -1.1 | 8
C/C(=N\NC(=O)Cc1c[nH]c2ccccc12)c1ccc2ccccc2c1 | 4897 | -8 | x | x | x | x | -17
CCOC(=O)C1=CNS(=O)(=O)NC1c1ccc(Br)cc1F (configuration not stated) | 3903 | -20 | 1 | 2 | 6 | 1.4 | x
N#C/C(=C\c1c[nH]c2ccccc12)C(=O)NC1CCCC1 | x | -21 | 19 | 5 | -9 | 3.9 | -1
COC(=O)C(O)(CC(=O)Nc1cc(Cl)ccc1Cl)C(F)(F)F (configuration not stated) | 3127 | -10 | 11 | 3 | 0 | -7.3 | -5
COc1ccc(NC(=O)C(=O)NCCC2CCCCN2S(=O)(=O)c2cccs2)cc1 (configuration not stated) | u | 34 | 11 | 3 | 12 | 4.9 | 30
COc1ccc(-n2c(SCC(=O)NC3CCCCC3)nc3ccsc3c2=O)cc1 | 21037* | -30 | 3 | 9 | 6 | 2.5 | 5
Cc1ccccc1NC(=O)/C(C#N)=C\c1cccnc1 | 17365* | -19 | 9 | 4 | 9 | 3.7 | 4
CCOc1ccc(C2Nc3cccc4cccc(c34)N2)cc1OC | 2210 | -28 | 0 | 1 | -19 | -8.1 | 14
CCCC(=O)Nc1nnc(CCc2ccccc2)s1 | 4386 | -25 | 2 | 3 | 8 | 6.9 | -6
Cn1c2ccccc2c(=O)c2ccc(F)cc21 | 3030 | -9 | 0 | 1 | -5 | -1.6 | -7
CC(=O)c1cccc(NC(=O)C2=CN3CCS(=O)(=O)N=C3C=C2)c1 | 4270 | -8 | 2 | 9 | 5 | 5.1 | x
Cc1ccc(S(=O)(=O)N(CCCN2CCCC2=O)Cc2cc3c(C)ccc(C)c3[nH]c2=O)cc1 | 8982 | -14 | -5 | 7 | 2 | 6.7 | 7
CCOc1ccc(NC(=O)/C(C=Nc2ccccc2)=C(\C)O)cc1 | 5110 | -24 | 8 | 9 | 0 | 0.2 | -7
O=C(CC1C[C@H](C(=O)N2CCOCC2)[C@@]2(CCC3CCCC3)c3[nH]c4ccccc4c3CCN2C1=O)NCc1ccco1 (some centres not stated) | 3598 | -10 | -14 | -1 | 0 | 2.5 | x
CCOC(=O)c1sc(N)c(C(N)=O)c1C | 4186 | -28 | 3 | 3 | -2 | 6.0 | 3
COC(=O)C1=C(C(=O)OC)C2N(C)c3ccc(OC)cc3[C@@]23CC(C(=O)OC)N(C(=O)CC(C)C)C3=N1 (some centres not stated) | x | x | 8 | 6 | 3 | 3.4 | x
CCC1Oc2ccc(C)cc2N(CC(=O)NCc2cccs2)C1=O (configuration not stated) | 4948 | -23 | 6 | 4 | 5 | 6.2 | 2
CN(C)c1nc(-c2ccccc2)[n+](C)s1 | 2685 | 8 | x | x | 6 | 4.7 | 5
COc1ccc(NC(=O)C2(c3ccc(NC(=O)c4ccc(C)cc4)cc3)CCCC2)cc1 | 10541 | -11 | -1 | -5 | -2 | 6.7 | 0
Cc1nn(Cc2ccccc2)c(C)c1NC(=O)c1noc2c1CCc1ccccc1-2 | 5584 | -20 | -14 | 1 | -5 | 0.0 | 7
CC(C)c1cc(CN2CCN(Cc3ccc(F)c(F)c3)C(CCO)C2)[nH]n1 (configuration not stated) | 4601 | -19 | -5 | 2 | -2 | -1.4 | 6
COc1cc(C=NN=C2SCC(=O)N2c2ccc(O)cc2)ccc1O | x | x | -1 | -3 | 4 | 1.3 | x
CN1CCN(NC(=O)c2cccc(Br)c2)CC1 | 2629 | 14 | -7 | 8 | -1 | -3.3 | -13
CC1CN(Cc2cc(=O)[nH]c(C3CC3)n2)CC(C)O1 (configuration not stated) | 4506 | -10 | 4 | 19 | -2 | 1.7 | -4
CSc1nc(C=C2C=Nc3ccccc32)c(O)n1C | x | x | 1 | 6 | -19 | 4.9 | x

High-throughput results as filed in PubChem BioAssay.
